ClpP mod = qHTS Assay for Activators of ClpP; ATP-dependent Clp protease proteolytic subunit (Bacillus subtilis (strain 168)), P80244; AID 651965, 2013; 340,000 compounds, 1.9% hits; Potency, µM (top dose mostly 57.5 µM), for inactives: at the top dose activity change, negative = active; purified B. subtilis ClpP, FRET peptide cleavage, 20 min; active = well fitted falling curve with a large enough effect; inconclusive = small, poorly fitted or top-dose-only effect; inactive = no such curve, though single readings can be large or run the other way; also: the source files actives as falling curves though it sought activators and does not explain the sign; nearly all actives have a fitted effect of over 65% in size; many hits overshoot -100%
Target sequence (P80244 whole entry, looked up): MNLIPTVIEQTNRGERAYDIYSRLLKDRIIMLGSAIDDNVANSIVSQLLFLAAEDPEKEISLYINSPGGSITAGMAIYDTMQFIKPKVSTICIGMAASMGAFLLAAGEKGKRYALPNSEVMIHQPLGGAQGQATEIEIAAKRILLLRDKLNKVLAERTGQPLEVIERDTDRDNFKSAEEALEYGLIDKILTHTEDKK
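ClpP 10 microg/mL final, pH 8 Tris/KCl buffer with BSA, glycerol, Tween-20; compound pinned in; FRET-FV substrate; RT 20 min; Ex320/Em430; ΔFRET vs ADEP 5.8 microM, DMSO, no enzyme.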
PINK1 expr mod = PINK1 expression modulation; PINK1 immunofluorescence, high-content cytometry, 24 h; Potency, µM (series often up to 76.6 µM), for inactives: at the top dose activation (PINK1 increase), usual class: activators; 410,000 compounds, 0.2% hits; active = well fitted activation curve with a large enough effect; inconclusive = small, poorly fitted or top-dose-only effect; inactive = flat fitted curve, though single readings scatter; cell line not stated here;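 also: % of control where 0% means no effect; nearly all actives have a fitted effect of over 65% in size; a mitochondrial uncoupler was the plate control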
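Stable cell line treated 24 h with compounds at 5 concentrations (CCCP controls), then fixed and immunostained for PINK1 plus nuclear and cell stains; PINK1 immunofluorescence quantified by laser-scanning microplate cytometry.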
The depositor's hits bear a star; u = inconclusive. Potency is read from the fitted curve at half-maximal effect. These rows are one share of the data (hit frequency here may not be typical).

SMILES	ClpP mod	PINK1 expr mod
O=C(NCc1c(-n2cccc2)sc2c1CCCC2)Nc1cccc(C(F)(F)F)c1	0.1%	3.6%
FC(F)(F)c1cc(-c2ccccc2)nc2cc(-c3ccccc3)nn12	-5.9%	-0.5%
Cc1c(NC(=O)Nc2cccc(C(F)(F)F)c2)sc2nc3n(c(=O)c12)CCC(C)CC3 (stereo not given)	-1.2%	1.7%
CCOC(=O)c1c(C)oc2nc(C)nc(NCc3ccc(C)cc3)c12	-2.8%	0.3%
CCc1ccccc1NC(=O)Cn1c(=O)oc2ccccc21	0.3%	-0.9%
Cc1oc(-c2ccc(C(=O)NCCCOC(C)C)cc2)nc1CS(=O)(=O)c1ccccc1	4.2%	1.9%
Cc1cccc(C)c1NC(=O)CCS(=O)(=O)c1ccc2c(c1)CC(C)N2C(=O)C1CC1 (stereo not given)	-2.8%	0.6%
Cc1ccc(NC(=O)c2sc(-n3nc(C)c(CCC(C)C)c3C)nc2C)cc1C	-3.1%	-0.9%
CSc1ncc(Cl)c(C(=O)Nc2nc3ccc(F)cc3s2)n1	-1.0%	0.7%
CC(C)OCCCn1c(=O)c2ccccc2n2c(-c3ccc(F)cc3)nnc12	-11%	0.8%
CC(=O)c1ccc(NC(=O)CCc2c(C)nn(-c3ccc(N4CCCCC4)nn3)c2C)cc1	-0.5%	4.7%
COc1cc(OC)c(NC(=O)c2c(N3CCCC3=O)c3cc(C)ccc3n2C)cc1Cl	-3.0%	-1.1%
CCOC(=O)c1c(C)[nH]c(C)c1S(=O)(=O)NCC(=O)N1CCN(c2ccccc2OC)CC1	2.5%	0.4%
COc1ccc(OC)c(CNC(=O)C2CCN(c3nc4ccccc4nc3C(F)(F)F)CC2)c1	-0.1%	1.1%
CCn1c2c(c(=O)n3ncc(C(=O)N4CCN(c5ccc(C(C)=O)cc5)CC4)c13)CN(Cc1ccc(OC)cc1)CC2	-19%	0.8%
Cc1ccc(CNC(=O)c2cc(=O)c3cc(C)cc(C)c3o2)cc1	-3.8%	1.9%
Cc1ccc(Cl)cc1N1CCN(C(=O)CCn2c(=O)c3cccn3c3cccnc32)CC1	u	-0.1%
Cc1ccc2oc(-c3cc(NC(=O)c4ccc5c(c4)OCCO5)cc(C)c3O)nc2c1	1.0%	0.6%
O=C(CC1C(=O)N(c2ccccc2)C(=O)N1Cc1ccc(F)cc1)Nc1cccc(F)c1 (stereo not given)	-2.2%	0.6%
CCOC(=O)c1ccc(NC(=O)C2CCCN(c3ccc(Sc4ccc(C)cc4)nn3)C2)cc1 (stereo not given)	u	0.0%
CCCCOc1cccc(C(=O)Nc2cccc3ccc(C)nc23)c1	-20%	3.0%
CCn1cc(S(=O)(=O)c2ccc(Cl)cc2)c(=O)c2cc(F)c(N3CCOCC3)cc21	-7.8%	-1.4%
CC(=O)c1ccc(NC(=O)c2cc3c([nH]c2=O)CC(c2ccccc2)CC3=O)cc1 (stereo not given)	-3.5%	3.6%
O=C(NCc1ccncc1)[C@@H]1CCCN1C(=O)[C@@H]1CCCN1	-0.6%	2.2%
CCOc1ccc(N(CC)C(=O)Cn2cnc3sc(C)c(S(=O)(=O)N4CCN(c5ncccn5)CC4)c3c2=O)cc1	-1.5%	2.0%
COc1ccc(-c2c3c(=O)n(C)c(=O)n(C)c3c3n2-c2ccccc2NC3c2ccco2)cc1 (stereo not given)	4.2%	-0.4%
Cc1ccc(NC(=O)C2CCCN2S(=O)(=O)c2ccc3nc(-c4ccccc4)[nH]c3c2)cc1F (stereo not given)	u	3.4%
Cc1cc(N2CCC(C(=O)NCCC(C)C)CC2)n2nc(C)c(-c3ccc(Cl)cc3)c2n1	4.4%	1.3%
Cc1ccc(CNC(=O)Cn2cc(S(=O)(=O)Cc3ccccc3Cl)c3ccccc32)cc1	-3.1%	6.9%
CCC(Oc1ccccc1F)C(=O)N1CCC(c2nc3ccccc3s2)CC1 (stereo not given)	1.4%	-0.2%
COC(=O)c1cc2oc(C)cc2n1CC(=O)Nc1cc(Cl)ccc1OC	1.2%	1.1%
CCCCC[C@@H](C)N1C[C@@H](COCc2ccccc2)Oc2cc(N3CCC[C@H]3C(N)=O)ccc2S1(=O)=O	1.0%	2.0%
CC(C)(C)OC(=O)N1CCC(c2c(C(=O)N3CCN(c4ccccn4)CC3)cnn2-c2ccc(F)cc2F)CC1	-21%	-0.4%
Cc1csc2nc(COC(=O)CNC(=O)c3ccccc3)cc(=O)n12	4.8%	3.4%
Cc1cc(C)cc(-n2ccn3c(CC(C)(C)CC(=O)O)nnc3c2=O)c1	-4.2%	1.5%
Cc1ccc2ncc(C(=O)Nc3ccc(F)cc3F)c(=O)n2c1	-0.3%	1.9%

Whole records, looked up by structure:
`CC(=O)c1ccc(NC(=O)CCc2c(C)nn(-c3ccc(N4CCCCC4)nn3)c2C)cc1` is listed as ClpP mod = -0.5%; PINK1 expr mod = 4.7%
`O=C(CC1C(=O)N(c2ccccc2)C(=O)N1Cc1ccc(F)cc1)Nc1cccc(F)c1` (stereo not given) is listed as ClpP mod = -2.2%; PINK1 expr mod = 0.6%

Following part.
SMILES	ClpP mod	PINK1 expr mod
CCc1nn2c(=O)cc(COC(=O)c3ccccc3)nc2s1	2.1%	-0.1%
COc1ccc(C(=O)NCC(c2ccco2)S(=O)(=O)c2cccs2)cc1 (stereo not given)	-2.3%	-0.3%
CCOc1ccc(NC(=O)C2CCCN(c3ccc(Sc4ccc(C)cc4)nn3)C2)cc1 (stereo not given)	1.2%	0.9%
Cc1ccc(NC(=O)Nc2c[nH]c(=O)[nH]c2=O)c(Cl)c1	0.4%	2.6%
CCOCCCNc1ncnc2c1cnn2-c1ccc(C)c(C)c1	4.5%	11%
O=C(CCCn1c(=O)c2cccn2c2cccnc21)Nc1ccccc1Br	-26%	0.6%
Cc1ccc(NC(=O)CN2C=NS(=O)(=O)c3ccccc32)cc1	0.0%	0.2%
CCN1CCN(C(=O)c2ccc3c(c2)N(Cc2c(F)cccc2Cl)C(=O)c2ccccc2S3)CC1	-0.2%	-0.1%
Cc1ccc(C)c(CN2C(=O)c3ccccc3S(=O)(=O)c3ccc(C(=O)Nc4ccccc4C(F)(F)F)cc32)c1	-8.6%	-0.6%
Cc1ccc(NC(=O)Cn2c(=O)ccc3cc(S(=O)(=O)N4CCC(C)CC4)ccc32)cc1C	-1.0%	-4.2%
C[C@H]1COc2cccc(N3CCSCC3)c2S(=O)(=O)N1	3.0%	-0.1%
Cc1cccc(CSc2nnc3[nH]c(=O)cc(-c4ccccc4)n23)c1	u	-3.3%
O=C(Cn1ncc2c3ccccc3n(Cc3ccccc3F)c2c1=O)N1CCCCCC1	-5.8%	2.7%
COc1ccc(N2CC(NC(=O)COc3ccc4ccccc4c3)CC2=O)cc1OC (stereo not given)	0.4%	-1.0%
CNC(=O)c1c(NC(=O)c2ccc(S(=O)(=O)N3CCCCC3)cc2)sc2c1CCC2	1.4%	4.7%
CCC(=O)Nc1ccccc1-c1nc2ccccc2n(CC(=O)c2ccc(Br)cc2)c1=O	-0.9%	-0.3%
Cc1ccc(S(=O)(=O)c2nnn3c2nc(N2CCCC(C)C2)c2cc(Cl)ccc23)cc1C (stereo not given)	-7.0%	-2.3%
CCc1nn2c(=O)cc(COC(=O)c3ccc4c(c3)OCO4)nc2s1	-4.3%	0.8%
CCOc1ccccc1NC(=O)C1=C(C)Nc2ncnn2C1c1sccc1C (stereo not given)	-0.1%	-3.8%
Cc1ccc(C(C)C)c(OCC(O)CN2CCN(c3ccccc3F)CC2)c1 (stereo not given)	1.0%	7.3%
CCN(CC)S(=O)(=O)c1ccc2c(c1)N(CC(=O)NCCCN1CCN(c3cc(Cl)ccc3C)CC1)C(=O)CO2	-1.1%	0.6%
O=c1[nH]c2ccc(NS(=O)(=O)c3ccc(F)cc3)cc2s1	-4.1%	1.1%
COCCn1c(C)cc(O)c(C(c2ccccc2)N2CCN(c3ccc(F)cc3)CC2)c1=O (stereo not given)	-0.3%	0.2%
CCOc1ccc(NC(=O)CCS(=O)(=O)c2ccc3nc(C)sc3c2)cc1	1.1%	0.3%

Look-ups from the list.
Entry of CCN(CC)S(=O)(=O)c1ccc2c(c1)N(CC(=O)NCCCN1CCN(c3cc(Cl)ccc3C)CC1)C(=O)CO2 in ClpP mod: -1.1%
Entry of Cc1ccc(S(=O)(=O)c2nnn3c2nc(N2CCCC(C)C2)c2cc(Cl)ccc23)cc1C (stereo not given) in PINK1 expr mod: -2.3%
Entry of CCc1nn2c(=O)cc(COC(=O)c3ccc4c(c3)OCO4)nc2s1 in ClpP mod: -4.3%
Entry of Cc1ccc(C(C)C)c(OCC(O)CN2CCN(c3ccccc3F)CC2)c1 (stereo not given) in PINK1 expr mod: 7.3%
Entry of O=C(Cn1ncc2c3ccccc3n(Cc3ccccc3F)c2c1=O)N1CCCCCC1 in PINK1 expr mod: 2.7%

(continued)
SMILES	ClpP mod	PINK1 expr mod
CCCC(=O)Nc1ccc(-c2nc3ncccc3o2)cc1C	4.1%	3.6%
Cc1cn2c(=O)c(S(=O)(=O)NCc3ccccc3Cl)c(C)nc2s1	16µM*	0.2%
CNC(=O)C1CCN(C(=O)N2CC(C)Oc3ccc(C)cc32)CC1 (stereo not given)	1.8%	-0.7%
COc1cc(Br)c(/C=C(\C#N)c2nc3ccccc3[nH]2)cc1OC	-2.3%	2.8%
Cc1ccc(NC(=O)C(=O)NCC(c2cccnc2)N2CCc3ccccc32)cc1Cl (stereo not given)	-0.6%	1.2%
O=C(COc1ccccc1Cl)Nc1ccc(OCc2cc(=O)n3ccsc3n2)cc1	-7.1%	2.1%
CCOC(=O)c1[nH]c(C)c(CCC(=O)Nc2cccc(C(F)(F)F)c2)c1C	0.1%	2.4%
Cc1oc(-c2ccc(C(=O)NC(C)c3ccccc3)cc2)nc1CS(=O)(=O)c1ccccc1 (stereo not given)	3.7%	1.6%
CCOc1ccc(CCNC(=O)CN(c2ccc(C)cc2)S(=O)(=O)N(C)C)cc1OCC	1.9%	1.2%
Cc1cc(Cl)ccc1OCC(=O)N(Cc1sccc1C)C1CCS(=O)(=O)C1 (stereo not given)	-3.2%	0.2%
CCN(Cc1nc(-c2ccc(OC)cc2)oc1C)S(=O)(=O)c1ccc(Cl)cc1	-14%	0.0%
COc1ccc(CNC(=O)Cc2csc3nc(-c4ccc(F)cc4)cn23)cc1	-2.2%	3.8%
Cc1cc2nn(-c3ccc(F)cc3)nc2cc1NC(=O)c1cccc2ccccc12	7.6%	9.7%
Cc1ccc(NS(=O)(=O)c2cn(C)c(C)n2)c(Br)c1	-1.4%	2.8%
Cc1ccc(OCCn2cc(C(=O)C3CCCCC3)c3ccccc32)cc1	-5.4%	3.4%
Nc1ccc(-c2cc3ccccc3[nH]2)cc1	3.8%	0.2%
COC(=O)c1c(-c2ccc(Cl)cc2)noc1N1CCN(c2cccc(OC)c2)CC1	-9.0%	-0.2%
CCCCNC(=O)c1cc2n(n1)CCCN(Cc1ccc(C)cc1)C2=O	-0.1%	-0.2%
O=C(Cc1ccc(F)cc1)NCCc1csc2nc(-c3ccccc3F)nn12	-0.6%	1.3%
Cc1ccc2[nH]cc(C(c3ccccc3)c3ccc(C)s3)c2c1 (stereo not given)	-5.1%	11%
CCOc1ccc(C(=O)c2cn(CC(=O)Nc3ccc(OC)cc3)c3cc4c(cc3c2=O)OCCO4)cc1	-19%	2.6%
CC(C)c1ccc(S(=O)(=O)N2CCN(Cc3cccc(F)c3)CC2)cc1	-3.0%	2.4%
Cc1ccc(S(=O)(=O)NCC(c2ccc(N(C)C)cc2)N2CCc3ccccc32)cc1 (stereo not given)	-10%	1.7%
Cc1ccc(C)c(Cn2cc(CCC(=O)NC3CCCCC3)c3ccccc32)c1	-1.0%	-1.0%
O=C1NC[C@@H](CCCCN2CCN(CCc3ccccc3)C(=O)C2=O)N(CCc2ccc(O)cc2)C1=O	2.0%	0.6%
CCC1CN(C(=O)N2CCC(C(=O)NCCc3ccccc3C)CC2)c2ccccc2O1 (stereo not given)	-1.5%	0.5%
CCOC(=O)C1CCN(CCC(=O)Nc2ccccc2OC)CC1	-2.3%	1.0%
Cc1ccc(Sc2c(C)nn(C(=O)COc3ccccc3Br)c2C)cc1	-1.9%	2.5%
CCC(CC)C(=O)Nc1ccc2nc(SCC(=O)N3CCOCC3)sc2c1	-1.8%	0.8%
COc1ccccc1Nc1nn2c(=O)c3ccc(C(=O)NCc4ccc(F)cc4)cc3nc2s1	0.1%	4.4%
CCCCCn1c(=O)[nH]c2cc(C(=O)Nc3cc(OC)cc(OC)c3)ccc2c1=O	-4.2%	3.2%
Cc1ccc(S(=O)(=O)Nc2ccc3c(c2)c(C(=O)OC(C)C)c(C)n3S(=O)(=O)c2ccc(C)cc2)cc1	-5.4%	-1.7%
CC(C)CCNC(=O)c1cccc(Nc2nc3ccccc3n3nnnc23)c1	3.8%	4.2%
CC(=O)c1cccc(Nc2ncnc3c2cnn3C)c1	-4.0%	-0.1%
Cc1ccc(NC(=O)CC2Nc3cccc4cccc(c34)NC2=O)cc1 (stereo not given)	1.6%	1.9%
CC(C)C[C@H]1CNC(=O)C(=O)N1C[C@H]1CCCN1C[C@H](CC(C)C)N1C[C@H](CC(C)C)N(CCc2ccccc2)C(=O)C1=O	0.2%	0.5%
